Screening results deposited in PubChem BioAssay by National Center for Advancing Translational Sciences (NCATS).
TRPML1 ag: activates the human TRPML1 channel | Q9GZU1 | TRPML1-expressing cells, Ca2+ dye fluorescence, FDSS; host cell line not named in the record; reference of the full effect not given here | activation, % (no concentration beside the values) | hit rate 0.12% among 410,000 | AID 624414; in the data active = activation above about 50%; inconclusive = about 30% to 50%; inactive = below about 30%; note: 0% is about no effect; the text of the record puts the active cut at 80%
Target sequence (Q9GZU1 whole entry, looked up): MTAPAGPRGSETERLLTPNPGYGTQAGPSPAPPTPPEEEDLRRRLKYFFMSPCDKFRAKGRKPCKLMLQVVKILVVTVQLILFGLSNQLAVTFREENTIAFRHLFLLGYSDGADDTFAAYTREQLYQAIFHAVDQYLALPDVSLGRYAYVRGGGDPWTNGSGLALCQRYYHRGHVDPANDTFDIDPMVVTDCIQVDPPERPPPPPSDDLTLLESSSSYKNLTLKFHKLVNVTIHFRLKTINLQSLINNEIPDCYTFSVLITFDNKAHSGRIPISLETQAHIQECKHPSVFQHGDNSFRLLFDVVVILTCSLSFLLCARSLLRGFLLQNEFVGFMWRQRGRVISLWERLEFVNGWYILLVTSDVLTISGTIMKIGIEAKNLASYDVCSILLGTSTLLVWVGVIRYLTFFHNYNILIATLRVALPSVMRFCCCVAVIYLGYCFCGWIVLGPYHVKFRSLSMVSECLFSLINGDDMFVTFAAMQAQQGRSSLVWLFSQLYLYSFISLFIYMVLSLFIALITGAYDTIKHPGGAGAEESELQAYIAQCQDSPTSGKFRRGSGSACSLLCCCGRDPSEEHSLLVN
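Kinetic FDSS Ca2+ read in Tet-induced TRPML1-DL cells (ABD Ca8 dye plus quencher, 45-90 min RT loading): baseline, then compound, then 110 s agonist window; EC80 agonist 54-4 at 4uM final added afterwards for a 110 s antagonist window.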
PINK1 modulator: modulators of PINK1 expression | PINK1 immunofluorescence, high-content cytometry, 24 h | Potency, µM (doses to about 76.6 µM), inactives show at the top dose activation (PINK1 increase), hits mostly activators | hit rate 0.2% among 410,000; active = well fitted activation curve with a large enough effect; inconclusive = small, poorly fitted or top-dose-only effect; inactive = flat fitted curve, though single readings scatter; cell line not stated here;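 note: potency is the fitted concentration of half-maximal effect; % of control where 0% means no effect; nearly all actives have a fitted effect of over 65% in size; a mitochondrial uncoupler was the plate control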
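A stable cell line was treated with compounds at 5 concentrations for 24 hours, with CCCP as control. PINK1 levels and mitochondrial localization were measured by immunofluorescence with mitochondrial, cell and nuclear markers after fixation, read by laser-scanning cytometry.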
An asterisk follows results filed as active; u = inconclusive; & = joins results of further samples.

SMILES	TRPML1 ag	PINK1 modulator
CN(C)c1ccc(/C=C/c2cc(/C=C/c3ccc(N(C)C)cc3)c3ccccc3n2)cc1	u	19.6%
CCOC(=O)c1ccccc1NC(=O)c1cc2c(s1)-c1ccccc1SC2	-0.3	2.7%
COc1ccc(Cl)cc1NS(=O)(=O)c1ccc2c(c1)NC(=O)CC(=O)N2	-0.5	0.2%
Cc1ccc(S(=O)(=O)CC(=O)N2CCN(c3nc4c(F)cccc4s3)CC2)cc1	2.0	0.6%
Cc1cc(NC(=O)C(C)C)cc(-c2nc3ncccc3o2)c1O	-0.2	2.0%
O=C(Nc1ccc(-c2cn3cccnc3n2)cc1)c1cc(Br)ccc1Cl	-0.8	0.4%
CN1C(=O)Cc2cc(S(=O)(=O)CCC(=O)N3CCN(c4ccc(Cl)cc4)CC3)ccc21	0.5	0.2%
COc1ccccc1N1CCN(C(=O)c2ccc3c(c2)N(Cc2ccccc2)C(=O)c2ccccc2S3(=O)=O)CC1	0.4	-0.2%
Clc1cccc(N2CCN(c3ncnc4c3nc3n4CCCCC3)CC2)c1	-0.4	4.6%
COc1ccccc1Cc1nc2ccccc2nc1SCC(=O)N(C)c1ccc(F)cc1	1.9	-7.9%
CCOC(=O)c1noc2ncnc(N3CCN(c4cccc(C(F)(F)F)c4)CC3)c12	1.6	0.9%
Cc1cccc(CNC(=O)CN2C(=O)CCCc3ccccc32)c1	0.8	-0.7%
COc1cccc(CN2CCc3nc(Nc4ccc5c(c4)OCCO5)ncc3C2)c1	0.3	1.5%
Cn1ncc2nc(SCC(=O)Nc3ccc(Br)cc3F)n(Cc3ccccc3)c(=O)c21	-0.9	7.0%
COc1cccc(NC(=O)C(Cc2ccccc2)N2Cc3ccccc3C2=O)c1 (stereo not drawn)	2.1	17.1%
CCc1ccc(-c2nn(CC(=O)Nc3ccccc3C)c3c2cnc2ccc(C)cc23)cc1	-0.1	0.0%
CCCN(CCC)CCCNC(=O)C1CCC(CNS(=O)(=O)c2ccc(NC(C)=O)cc2)CC1 (stereo not drawn)	1.6	0.6%
O=C(NCc1cccnc1)C(=O)NCC(c1cccnc1)N1CCN(c2ccccc2)CC1 (stereo not drawn)	0.5	0.8%
Cc1cccc(NC(=O)c2cc(S(=O)(=O)N3CCc4ccccc43)ccc2F)c1C	1.2	1.2%
Cc1ccc(OCC(=O)Nc2ccccc2OCc2cc(=O)n3ccccc3n2)cc1C	2.5	-2.4%
Cn1c(=O)c2c(nc(NCCc3ccccc3)n2Cc2ccccc2Br)n(C)c1=O	-1.2	1.1%
CCn1c(=O)n(CC)c2cc(N3CCCCC3)c(NC(=O)Nc3ccccc3Cl)cc21	1.6	-0.2%
COc1ccc(Cn2c(CO)cnc2SCC(=O)NCc2ccco2)cc1	0.7	-5.0%
OCCN(CCO)c1ncnc2c1cnn2-c1ccc(F)cc1	0.0	0.5%
CC(C)c1ccc(NC(=O)Cn2c(=O)oc3cc(S(=O)(=O)N4CCCC4)ccc32)cc1	1.5	-4.8%
COc1ccc(NC(=O)c2c(NC(=O)Cc3ccccc3)sc3c2CCCC3)cc1	3.0	0.9%
N#Cc1c(C(F)(F)F)cc(-c2cccs2)nc1SCC(=O)Nc1cccc(C(F)(F)F)c1	6.6	u
Cc1cc(C)cc(NC(=O)C2CCCN2S(=O)(=O)c2ccc3nc(-c4ccccc4)[nH]c3c2)c1 (stereo not drawn)	2.8	1.6%
COc1ccccc1N1CCN(C(=O)CCS(=O)(=O)c2cc(Br)cc3c2N(C(C)=O)CC3)CC1	-0.3	0.2%
COc1cccc(C(=O)Nc2ccc(C(=O)OCc3cc(=O)n4cc(C)sc4n3)cc2)c1	2.8	0.9%

One compound at a time (already shown):
O=C(NCc1cccnc1)C(=O)NCC(c1cccnc1)N1CCN(c2ccccc2)CC1 (stereo not drawn) is entered as TRPML1 ag = 0.5; PINK1 modulator = 0.8%
CN1C(=O)Cc2cc(S(=O)(=O)CCC(=O)N3CCN(c4ccc(Cl)cc4)CC3)ccc21 is entered as TRPML1 ag = 0.5; PINK1 modulator = 0.2%

Later entries.
SMILES	TRPML1 ag	PINK1 modulator
Cc1ccc2cccc(NC(=O)COc3ccccc3Cl)c2n1	3.6	2.6%
CCOC(=O)c1ccccc1NC(=O)N(Cc1ccc(C)cc1)Cc1cccn1-c1nnc(N2CCCC2=O)s1	-0.6	1.6%
CCC1CN(C(=O)N2CCC(C(=O)NCCc3ccc(OC)cc3OC)CC2)c2cc(C)ccc2O1 (stereo not drawn)	2.4	-0.4%
Cc1cccc(-n2c(-c3ccccc3)cn3c4c(=O)[nH]c(=O)n(C)c4nc23)c1	2.0	-0.9%
O=C(CCn1c(=O)c2cccn2c2cccnc21)N1CCN(c2ccc(Cl)cc2)CC1	-0.7	2.0%
Cc1cc(F)ccc1NC(=O)CCS(=O)(=O)c1ccc2c(c1)NC(=O)CO2	2.9	-0.2%
COC(=O)c1ccccc1NC(=O)CSc1c2c(nc3ccc(Cl)cc13)CCCC2	-0.6	1.2%
Cc1ccc(N2CCN(S(=O)(=O)c3cc(C(=O)Nc4cc(Cl)cc(Cl)c4)ccc3F)CC2C)cc1 (stereo not drawn)	1.1	0.7%
Cc1ccc(CNC(=O)Cn2c3ncccc3c(=O)n2-c2ccccc2)cc1	3.0	1.4%
CN(C(=O)CSc1nc2ccc(NC(=O)c3cccc(F)c3)cc2s1)c1ccccc1	1.4	3.1%
COc1c(Cl)cc(Cl)cc1C(=O)Nc1cccc(-c2nc3ccccc3o2)c1C	0.8	3.6%
CCC(=O)Nc1sc2c(c1C(=O)Nc1cccc(C)c1)CCCC2	2.6	0.1%
CCOC(=O)c1ccc(N2CCN(c3cc(C)ccc3C)CC2)c(NC(=O)Nc2ccccc2)c1	-0.2	1.2%
COc1cccc(NC(=O)N(Cc2c[nH]c3ccccc23)C2CCCCC2)c1	-0.2	3.1%
CCOC(=O)c1c(S(=O)(=O)N2CCC(C(=O)N3CCN(c4ccc(F)cc4)CC3)CC2)c(C)n(C)c1C	-1.3	-1.0%
CC(=O)Nc1ccc(NC(=O)CC2Sc3ccccc3NC2=O)cc1 (stereo not drawn)	-0.2	-0.9%
COc1ccccc1N1CCN(C(=O)Cn2c(=O)nc(-c3ccccc3)c3cc(Cl)ccc32)CC1	1.5	0.5%
CCN(Cc1ccccc1)Cc1c(O)ccc2c(=O)c(-c3ccc(Cl)cc3Cl)coc12	2.0	0.5%
COC(=O)c1cc2oc3ccccc3c2n1Cc1c(C)cc(C)cc1C	2.4	2.2%
Cc1ccc(-n2c(=O)c3ccc(C(=O)NCc4ccccc4Cl)cc3n(Cc3cccc(F)c3)c2=O)cc1	1.3	-5.0%
COc1ccc(-c2nc3sc(CCNC(=O)Cc4ccc(F)cc4)c(C)n3n2)cc1	-0.3	1.9%
CNC(=O)COc1ccc(Nc2nnc(-c3ccc(C)c(S(=O)(=O)NC(C)(C)C)c3)c3ccccc23)cc1	0.3	11.8%
C(=C\c1cnc2ccccc2n1)/c1ccc2c(c1)OCO2	0.2	2.3%
CCOc1ccc(NC(=O)c2c(NCc3cccs3)sc3c2CCCCC3)cc1	-0.4	-1.8%
COc1cccc(NC(=O)C2CCCN(c3ncnc4onc(C)c34)C2)c1 (stereo not drawn)	-0.5	0.6%
CC(C)(C)c1ccc(S(=O)(=O)N2CCN(c3nc(-c4cccs4)nc4ccccc34)CC2)cc1	0.8&0.4	0.4%&1.2%
CCc1ccc(NC(=O)c2nnn(Cc3cccc(C(F)(F)F)c3)c2N)cc1	-0.7	0.6%
Cc1cc(C)c(NC(=O)CSc2nccn2Cc2ccco2)c(C)c1	-0.4	10.2%
Cc1ccc(CN2CCCn3nc(C(=O)NCc4ccccc4Cl)cc3C2=O)cc1	-0.8	-0.5%
CCc1ccc(-c2nn(CC(=O)Nc3ccccc3)c3c2cnc2ccc(F)cc23)cc1	0.4	8.9%
COc1ccc2c(c1)CC(C(=O)NCCCN1CCN(c3cccc(Cl)c3)CC1)CO2 (stereo not drawn)	1.4	-1.4%
CCOc1ccccc1NC(=O)Cn1ncc2c(=O)oc3ccc(C)cc3c21	0.1	-1.2%
Cc1cc(C)cc(NC(=O)CN2C(=O)c3ccccc3Sc3ncccc32)c1	0.9	-0.1%
CCCCC(=O)Nc1cc(-c2nc3cccnc3s2)ccc1C	2.2	0.6%
CCCN1CCN(c2nnc(-n3cccc3C(=O)Nc3ccccc3C(F)(F)F)s2)CC1	0.2	0.7%
O=C(NCc1noc2ccccc12)N1CCN(c2ccccc2F)CC1	1.2	2.6%
CCC(C(=O)NCCc1ccccc1)n1nc(C)c2sc3ccccc3c2c1=O (stereo not drawn)	2.4	2.3%
CCCN(C(=O)c1noc2c1COc1ccc(C)cc1-2)c1ccc(Cl)c(Cl)c1	2.7	0.7%
Cc1cccc(Cn2c(=O)n(Cc3ccccc3)c(=O)c3sc4ccccc4c32)c1	-0.2	-1.1%
COc1ccccc1NC(=O)c1c(NC(=O)c2cccs2)sc2c1CCC(C(C)(C)C)C2 (stereo not drawn)	-0.8	0.0%
O=C(NCc1ccc(F)cc1Cl)c1ccc(CSCc2ccccc2Cl)o1	4.2	1.6%
COc1ccc(NC(=O)c2c(NCc3cccs3)sc3c2CCCCC3)c(OC)c1	-0.2	3.7%
Cc1cccc(C(=O)Nc2nc(-c3nnn(-c4cc(F)ccc4F)c3C)ns2)c1	0.9	7.7%
CCOC(=O)c1ccc(NC(=O)CC2Sc3ccc(C(F)(F)F)cc3NC2=O)cc1 (stereo not drawn)	0.2	9.7%
Cc1oc(-c2ccc(C(=O)Nc3cc(F)ccc3F)cc2)nc1COc1ccccc1	1.2	1.4%
COc1ccc(C2=NN(S(C)(=O)=O)C(c3cn(-c4ccccc4)nc3-c3cccs3)C2)cc1 (stereo not drawn)	2.7	1.0%
CCCNC(=O)CN1CCN(c2ccc(NC(=O)c3ccc(OC)cc3)cc2C(=O)O)CC1	-0.8	-0.4%
COC(=O)c1ccc2c(c1)N(CC(=O)Nc1cccc(C(F)(F)F)c1)C(=O)c1ccccc1S2	5.4	9.0%
Cc1ccc(NC(=O)c2cc(S(=O)(=O)NC3CCCCCC3)ccc2F)cc1F	1.4	5.3%
O=C(CSc1nc2cc(C(=O)NC3CCCC3)ccc2c(=O)n1CC1CCCO1)c1ccc(F)cc1 (stereo not drawn)	-0.7	1.4%
COc1ccc(Br)cc1CNC(=O)CSc1n[nH]c(-c2ccccc2)n1	0.7	-0.3%
COc1cc(/C=C/c2nc3cc(Cl)ccc3c(=O)n2-c2ccc(C)cc2C)cc(OC)c1OC	0.0	0.5%
COc1ccc(Cl)cc1NC(=O)N1CCN(S(=O)(=O)c2ccc3c(ccn3C)c2)CC1	0.8	-0.4%
Cc1ccccc1OCC(=O)NCC(=O)OCc1cccc2ccccc12	0.2	1.7%
Cc1ccc(C(Nc2ccccn2)c2ccc3cccnc3c2O)cc1 (stereo not drawn)	0.8	2.8%
Cc1ccc(C(=O)NCC(c2cccs2)S(=O)(=O)c2cccs2)cc1 (stereo not drawn)	2.0	2.4%
CC(C)Oc1ccc(CNC(=O)CN2C(=O)c3cccnc3Oc3ccc(Cl)cc32)cc1	-0.2	0.5%
Cc1ccccc1-c1nc(SCC(=O)N(C)c2ccccc2)c2c(=O)n(C)c(=O)n(C)c2n1	-0.7	-0.3%
COc1ccc(-n2nc(C(=O)N3CCN(c4cccc(C)c4)C(C)C3)c3c4ccccc4n(C)c3c2=O)cc1Cl (stereo not drawn)	0.4	1.1%
CCOc1ccc2nc(N3CCCC(C(=O)NCc4ccc(OC)cc4)C3)sc2c1 (stereo not drawn)	-0.6	5.4%

Following part
SMILES	TRPML1 ag	PINK1 modulator
Cn1nc(-c2cccnc2)nc2c(=O)n(C)c(=O)nc1-2	-0.5	0.8%
CCOc1ccc(-c2cn3c(n2)sc2cc(C(=O)NCCc4ccc(OC)c(OC)c4)ccc23)cc1	-0.3	-0.4%
O=C(CCCCCn1c(=O)c2sccc2n(CC(=O)Nc2cc(C(F)(F)F)ccc2Cl)c1=O)NCc1ccccc1Cl	0.4	1.2%
CC1CCN(S(=O)(=O)c2nnc(NC(=O)c3cccc(F)c3)s2)CC1	-0.2	2.4%
COC(=O)c1cc(NC(=O)CCS(=O)(=O)c2cc(Br)cc3c2N(C(=O)C2CC2)CC3)cc(C(=O)OC)c1	0.2	2.9%

Two successive compounds already listed:
SMILES	TRPML1 ag	PINK1 modulator
Cn1nc(-c2cccnc2)nc2c(=O)n(C)c(=O)nc1-2	-0.5	0.8%
CCOc1ccc(-c2cn3c(n2)sc2cc(C(=O)NCCc4ccc(OC)c(OC)c4)ccc23)cc1	-0.3	-0.4%

Molecules from the list above that contain a tert-butyl group:
SMILES	TRPML1 ag	PINK1 modulator
CNC(=O)COc1ccc(Nc2nnc(-c3ccc(C)c(S(=O)(=O)NC(C)(C)C)c3)c3ccccc23)cc1	0.3	11.8%
CC(C)(C)c1ccc(S(=O)(=O)N2CCN(c3nc(-c4cccs4)nc4ccccc34)CC2)cc1	0.8&0.4	0.4%&1.2%
COc1ccccc1NC(=O)c1c(NC(=O)c2cccs2)sc2c1CCC(C(C)(C)C)C2 (stereo not drawn)	-0.8	0.0%

These rows are one share of the data; the hit share may differ from the screen's.
